Screening results: PubChem, Broad Institute
p53 mut binder: binds human mutant p53 on microarray; small molecule microarray binding, anti-GST fluorescence; calls only; hit rate 0.4% among 17,000;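 active = compounds whose four printed spots each glow above background more than chance allows, each with a p-value under 7%; compounds were printed on slides so no solution concentration is given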;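 note: about 2 pmol printed per array spot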
STAT3 binder: binds human STAT3 on microarray; hit rate 0.2% among 17,000; Small molecule microarray, His-STAT3 binding, anti-His fluorescence; calls only; P40763; AID 624138;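 active = compounds whose four printed spots each show fluorescence over background unusually high for their array block, chance value under 7%; compounds were printed on slides so no solution concentration is given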;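 note: about 2 pmol printed per array spot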
c-Myc SMM: binds human c-Myc on microarray | small molecule microarray, His-c-Myc binding, anti-His fluorescence | AID 624141 | calls only | hit rate 1.5% among 17,000;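 active = spot fluorescence over background with P-value below 7% in all four replicate spots, showing protein binding; compounds were printed on slides so no solution concentration is given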;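 note: score is binary with 100 for all four spots passing and 0 otherwise; about 2 pmol printed per array spot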
ID4 binder: binders of human ID4 protein | small molecule microarray, Flag-ID4 binding, fluorescence F/B | calls only | hit rate 1.2% among 31,000;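 active = spot signal over background at p below 0.07 in all four prints; compounds were printed on slides so no solution concentration is given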;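 note: a binder raises fluorescence above local background on the spot; about 2 pmol printed per array spot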
Target sequence (P47928 whole entry, looked up): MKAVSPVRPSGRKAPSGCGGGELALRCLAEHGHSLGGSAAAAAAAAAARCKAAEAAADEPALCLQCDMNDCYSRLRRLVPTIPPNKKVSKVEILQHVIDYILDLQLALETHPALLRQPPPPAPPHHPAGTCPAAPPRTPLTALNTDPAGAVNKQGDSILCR
Calls only; i = inactive. An excerpt; rates above refer to the full screens.

SMILES	p53 mut binder	STAT3 binder	c-Myc SMM	ID4 binder
Cc1cc(C)cc(OCC2CNC(=O)O2)c1 (centres undefined)	i	i	i	i
CCOC(=O)NNc1nncc2ccccc12	i	i	i	i
CCC(=O)O[C@]1(C(=O)SCF)[C@H](C)C[C@H]2[C@@H]3C[C@H](F)C4=CC(=O)C=C[C@]4(C)[C@@]3(F)[C@@H](O)C[C@@]21C	i	i	i	i
C[C@H]1[C@H](C)CC[C@]2(C(=O)O[C@@H]3O[C@H](COC4O[C@H](CO)[C@@H](OC5O[C@@H](C)[C@H](O)[C@@H](O)[C@H]5O)[C@H](O)[C@H]4O)[C@@H](O)[C@H](O)[C@H]3O)CC[C@]3(C)C(=CC[C@@H]4[C@@]5(C)C[C@@H](O)[C@H](O)[C@@](C)(CO)C5CC[C@]43C)[C@H]12 (some centres undefined)	i	i	i	i
O=c1cc(-c2ccc(O)cc2)oc2cc(O[C@@H]3O[C@H](CO)[C@@H](O)[C@H](O)[C@H]3O[C@@H]3OC[C@](O)(CO)[C@H]3O)cc(O)c12	i	i	i	i
Cc1cccc(C)c1NC(=O)C1CCCCN1C (centres undefined)	i	i	i	i

Part of the list above in order of number of heavy atoms, lowest first:
SMILES	p53 mut binder	STAT3 binder	c-Myc SMM	ID4 binder
Cc1cc(C)cc(OCC2CNC(=O)O2)c1 (centres undefined)	i	i	i	i
CCOC(=O)NNc1nncc2ccccc12	i	i	i	i
CCC(=O)O[C@]1(C(=O)SCF)[C@H](C)C[C@H]2[C@@H]3C[C@H](F)C4=CC(=O)C=C[C@]4(C)[C@@]3(F)[C@@H](O)C[C@@]21C	i	i	i	i

Full records from above. Order of values: p53 mut binder, STAT3 binder, c-Myc SMM, ID4 binder
Shown for `Cc1cc(C)cc(OCC2CNC(=O)O2)c1` (centres undefined) : i, i, i, i
Shown for `CCC(=O)O[C@]1(C(=O)SCF)[C@H](C)C[C@H]2[C@@H]3C[C@H](F)C4=CC(=O)C=C[C@]4(C)[C@@]3(F)[C@@H](O)C[C@@]21C` : i, i, i, i
